NPYLR7 agonist: agonists of mosquito NPYLR7 receptor, primary screen, cell-based, Aedes aegypti, calcium fluorescence, mosquito biting behavior; Aedes aegypti neuropeptide Y-like receptor 7 (NPYLR7); HEK293T NPYLR7/Galpha15, GCaMP6s calcium fluorescence; activation, % at 10 µM; actives 0.15% (n = 270,000); AID 1259423, 2018; in the data active = activation above about 40%;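 note: 0% = vehicle and 100% = reference agonist at the receptor; some compounds past the cut are filed as inactive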
NPYLR7 agonist max-min: recorded beside NPYLR7 agonist, whose call it bears; activation, %; measured here: Max-Min RFU normalised activation; some inactives read as strong as hits;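 span of the calcium signal over five minutes; 0% = vehicle and 100% = native peptide agonist; compound fluorescence can raise it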
Numbers without * were called inactive; & = joins results of further samples. The list is partial (hit frequency here may not be typical).

SMILES	NPYLR7 agonist	NPYLR7 agonist max-min
CN(Cc1n[nH]c(=O)n1CC1CCCCC1)S(C)(=O)=O	12	9
O=c1c(Cl)c(NCCNc2ccc([N+](=O)[O-])cc2)cnn1C12CC3CC(CC(C3)C1)C2	2	1
O=C(O)CC(NC(=O)c1ccc(=O)n(Cc2ccccc2)n1)c1ccccc1 (centres undefined)	-5	-5
Cc1ccc(C(NC(=O)N2CCN(c3ccccc3)CC2)C2CC2)cc1 (centres undefined)	5	1
CC(C(=O)Nc1ccc(N(C)C)cc1)N1C(=O)NC2(CCCc3ccccc32)C1=O (centres undefined)	0	0
CCOC(=O)N1CCN(C2CCCN(C(=O)c3ccccc3C(F)(F)F)C2)CC1 (centres undefined)	4	4
C=C1c2ccccc2NC(=O)N1C(C)c1ccccc1F (centres undefined)	3	3
CC(=O)Nc1ccc(C(=O)CSc2ncn[nH]2)cc1	1	2
CC1=C(C(=O)N(C)C)C(c2cc(Br)cs2)NC(=S)N1C (centres undefined)	1	-1
COC(=O)c1cc(C(C)C)nc2c1c(-c1ccc(OC)cc1)nn2C1CCS(=O)(=O)C1 (centres undefined)	12	5
CN(C)C(=O)c1nnc2n1CCN(Cc1ccc(-c3ccccc3)cc1)C2	8	4
COc1cccc(C(=O)N2CCCC(OCc3cccc(Cl)c3)C2)c1 (centres undefined)	-13	-3
O=C(CCn1ccc(=O)[nH]c1=O)NCc1cc(-c2ccc(F)cc2F)on1	-3	-5
Cn1ccc2c(-c3cccc(-n4cnnc4)c3)ccnc21	0	-4
O=c1c2cnc3ncnn3c2ccn1-c1ccccc1F	1	5
COc1ccccc1-c1ccc2c(c1)C(C)(Cc1ccc(C(F)(F)F)o1)C(=O)N2 (centres undefined)	4	3
Cc1ccc(C)c(NC(=O)CN(C)C(=O)Cn2nc(C)c([N+](=O)[O-])c2C)c1	-7	-6
CCOC(=O)N1CCN(C(C)C(=O)Nc2nc(-c3ccc(C)cc3)cs2)CC1 (centres undefined)	5	1
O=C(Oc1coc(CSc2ncccn2)cc1=O)c1ccco1	-10	-3
Cc1ccc(-c2nc(NCCC(c3ccccc3)c3ccccc3)c3ccccc3n2)cc1	2	-3
Cc1cc(N2C(=O)c3ccc(C(=O)Nc4ccc(O)cc4C(=O)O)cc3C2=O)no1	6	5
C=C(C)Cn1c(C2CC(=O)N(c3cccc(C)c3C)C2)nc2ccccc21 (centres undefined)	13	23
CC(NC(=O)NCCCc1ccc(O)cc1)c1cnn(C)c1 (centres undefined)	1	0
CC(C)Cn1c(SC2CCOC2=O)nc2sc3c(c2c1=O)CCC3 (centres undefined)	0	1
CCN(C)C(=O)c1ccc(N2C[C@H]3CC=CC[C@H]3C2)nc1	5	4
CCCn1c(=O)c(C(=O)Nc2ccc(O)cc2)c(O)c2ccccc21	2	2
CCn1c(C2CCCN(Cc3ncc(C)[nH]3)C2)nn(CCN(C)C)c1=O (centres undefined)	1	-1
COc1ccc(/C(C)=N\NC(=O)CSc2nc3ccccc3s2)cc1	7	5
CCOc1ccc(NC(=O)COc2cc(C(C)(C)C)nn2-c2nc(C)cc(C)n2)cc1	1	10
COc1ccc(CNc2[nH]ncc2C(N)=O)c(Cl)c1	8	6
COc1ccc(S(=O)(=O)N2CCOCC2)cc1C(=O)N1CCC(CCc2ccc(O)cc2)CC1	7	10
CN(C)S(=O)(=O)c1ccc2c(c1)/C(=C\CCN1CCNCC1)c1ccccc1S2	-1	-4
CCCc1nc(N2CCCN(C(=O)c3ccc4c(c3)OCO4)CC2)c2c(C)nn(-c3ccccc3)c2n1	8	12
NCCc1cccc(-c2cc(NCc3ccccn3)nc3[nH]ccc23)c1	2	-1
Cc1ccc2c(=O)c(-c3nc(-c4cccc(F)c4)no3)cn(CC(=O)NCCC3=CCCCC3)c2n1	-7	-6
COc1ccc(C(=O)N2CCN(C)C(C(=O)O)C2)c(OC)c1OC (centres undefined)	0	-3
O=C1c2ccccc2C(=O)c2c(NC3CCCCC3)ccc(Nc3ccc(Oc4ccccc4)cc3)c21	4	4
Cc1noc(-c2ccncc2)c1C(=O)N1CCC(Cc2ccc3c(c2)OCO3)CC1	6	-2
CC(C)(C)c1ccc(N=Nc2c(O)[nH]c3ccc(F)cc23)cc1	-11	-20
COC(=O)CCC(=O)N1CCN(c2cc(S(=O)(=O)N3CCc4ccccc4C3)ccc2OC)CC1	26	17
CCOC(=O)C(OCC)(OCC)C(c1ccccc1)C(C#N)S(=O)(=O)c1ccccc1 (centres undefined)	6	7
CCOc1ccc2ccccc2c1C(=O)Oc1coc(CSc2nc(C)cc(C)n2)cc1=O	-10	-2
COc1ncccc1NC(=O)CSCC(=O)Nc1cccc(C)c1	7	3
COc1cccc(CN(Cc2ccccc2)Cc2nc(C(=O)NCC3CCCO3)co2)c1OC (centres undefined)	18	12
CSc1nc2c(c(=O)[nH]1)C(c1cccs1)C1C(=O)CC(C)(C)CC1=N2 (centres undefined)	-2	-2
O=C(c1cc(-c2cccnc2)on1)N(CC1CCOC1)c1ccccc1 (centres undefined)	-4	-5
Cc1[nH]n(-c2ccccc2)c(=O)c1N=Nc1ccc(S(N)(=O)=O)cc1	8	-3
CC(=O)Cn1c(Br)nc2c1c(=O)n(C)c(=O)n2C	3	7

Three entries out of the list, sorted by molecular weight, ascending.
SMILES	NPYLR7 agonist	NPYLR7 agonist max-min
COc1ccc(C(=O)N2CCN(C)C(C(=O)O)C2)c(OC)c1OC (centres undefined)	0	-3
COC(=O)c1cc(C(C)C)nc2c1c(-c1ccc(OC)cc1)nn2C1CCS(=O)(=O)C1 (centres undefined)	12	5
COc1ccc(S(=O)(=O)N2CCOCC2)cc1C(=O)N1CCC(CCc2ccc(O)cc2)CC1	7	10

Back to the main list; the 3 compounds before the break are reprinted first.
SMILES	NPYLR7 agonist	NPYLR7 agonist max-min
O=C(c1cc(-c2cccnc2)on1)N(CC1CCOC1)c1ccccc1 (centres undefined)	-4	-5
Cc1[nH]n(-c2ccccc2)c(=O)c1N=Nc1ccc(S(N)(=O)=O)cc1	8	-3
CC(=O)Cn1c(Br)nc2c1c(=O)n(C)c(=O)n2C	3	7
CCOCCCN(Cc1nc(C(=O)OCC)cs1)C(=O)Nc1ccc(Cl)c(Cl)c1	-10	-19
O=C(NCc1ccc2c(c1)OCO2)c1cccc(Nc2c(Oc3ccc(Cl)cc3)cnn(-c3cccc(Cl)c3)c2=O)c1	3	3
Cc1cc(C(F)(F)F)nn1CC(=O)Nc1cc(Oc2cccnc2)cc([N+](=O)[O-])c1	4	1
CC(C)Cc1cc(C(=O)N2CCC(c3nnc4n3CCCCC4)CC2)n[nH]1	10	5
CC(NC(=O)Cc1ccc2c(c1)OCCO2)c1ccc(Cl)s1 (centres undefined)	-4	-5
O=S(=O)(Nc1nccnc1N1CCN(S(=O)(=O)c2cccc3ccccc23)CC1)c1ccc2c(c1)OCCO2	16	17
c1ccc(N2CCC(CNc3nccn4cnnc34)C2)cc1 (centres undefined)	2	-3
COCCN1C(=O)C2(SCCN2C(=O)c2ccccc2C)c2ccccc21 (centres undefined)	7	6
O=C(c1cccs1)N1CCN(c2ccc3nnc(-c4ccco4)n3n2)CC1	-1	-4
CC(C)C1CCCN(C(=O)C2CCN(C(=O)N3CCCC3)CC2)CC1 (centres undefined)	5	2
CCc1nnc(NC2CC(=O)N(C(C)C)C2)c(C#N)c1CC (centres undefined)	1	-1
COc1cc(-c2ccnc(N3CCN(C(=O)c4cccnc4Cl)CC3)n2)cc(OC)c1OC	3	2
CNS(=O)(=O)c1ccc(C(=O)Nc2ccc(C)c(C)c2)o1	-1	2
Cc1c2c(nc3ccccc13)-c1ccccc1OC2	-9	-9
Cc1nn2c3cc(N4CCCC4)ccc3nc2c2ccccc12	-2	-3
COc1cccc2ccc(CN3CCN(c4nc5ccccc5s4)CC3)nc12	8	-8
CC1=NC2=C(C(=O)CC(c3ccccc3)C2)C(c2cccc([N+](=O)[O-])c2)C1C(=O)OCc1ccccc1 (centres undefined)	2	-3
CC(C)c1ccc(CC2N=NC(=NN3CCOCC3)NC2=O)cc1 (centres undefined)	-8	-5
Cc1ccccc1C(c1ncccc1C)N(C)C(=O)C1CCN(Cc2ccc(Cl)c(Cl)c2)CC1 (centres undefined)	-2	-5
O=C(NCC1CC1)c1cnc(N2CCN(Cc3ccccc3)C2=O)o1	2	-1
Cc1ccc(NS(=O)(=O)c2ccccc2C(F)(F)F)cc1C	6	3
CC(C)n1nccc1NC(=O)c1cc(-c2ccc(Cl)cc2)on1	0	-3
CCOc1ccccc1NC(=O)CC(=O)NCc1ncc[nH]1	2	3
C(=N/Nc1cc(N2CCOCC2)nc(N2CCOCC2)n1)/c1ccncc1	-2	-5
c1nnc2c3c4c(sc3ncn12)CCC4	2	6
CC(C)(C)c1ccc(C(=O)n2cnnc2N)cc1	-2	-3
Cc1ccc2oc(C(=O)NCC3CCCCN3)cc2c1 (centres undefined)	5	1
Cn1nc(Sc2ccc3c(c2)OCCCO3)c(=O)n(C)c1=O	3	3
COC(=O)c1cccc(C(=O)N2CCCC(C(=O)c3cccc4ccccc34)C2)c1 (centres undefined)	3&5	1&6
CC1(C)CC2CC(C)(CN2C(=S)NC(=O)c2cccs2)C1 (centres undefined)	-5	-14
COCOc1ccc(-c2cc(-c3ccc(OC)c(OC)c3)cnc2N)cc1	-1	-6
Cc1ccc(C)c(S(=O)(=O)NCc2ccc3c(c2)OCO3)c1	0	-6
CCOC(=O)c1c(C)[nH]c(C(=O)COC(=O)C23CC4CC(CC(NC(C)=O)(C4)C2)C3)c1C	17	14
CCCN(CCc1cccc(F)c1)C(=O)c1cscn1	8	6
Cc1ccc(CN(Cc2ccccc2)C(=O)CN(C(=O)c2ccc(Cl)cc2Cl)C(C)(C)C)s1	29	28
CNC(=O)NC(=O)C(C)NC(C)c1cc(C)ccc1C (centres undefined)	3	4

Reformatted with two lines to a compound: part of the list above
The line under a structure holds: NPYLR7 agonist	NPYLR7 agonist max-min
- CNC(=O)NC(=O)C(C)NC(C)c1cc(C)ccc1C (centres undefined)
    3	4
- Cc1ccc(C)c(S(=O)(=O)NCc2ccc3c(c2)OCO3)c1
    0	-6
- CC(C)(C)c1ccc(C(=O)n2cnnc2N)cc1
    -2	-3
- COCOc1ccc(-c2cc(-c3ccc(OC)c(OC)c3)cnc2N)cc1
    -1	-6
- CC1(C)CC2CC(C)(CN2C(=S)NC(=O)c2cccs2)C1 (centres undefined)
    -5	-14
- c1nnc2c3c4c(sc3ncn12)CCC4
    2	6

(more compounds)
SMILES	NPYLR7 agonist	NPYLR7 agonist max-min
O=C(NNS(=O)(=O)c1cccc(Br)c1)c1cc2c(s1)CCC2	0&1	-1&-1
Cc1cc(-c2nnn(CC3(O)CCCCC3)n2)ccc1F	6&6	2&4
CN(C)CCNc1nc2c(Cl)cccc2s1	3	5
Cc1ccsc1CN(Cc1ccccc1)C(=O)CN(C(=O)C(c1ccccc1)c1ccccc1)C(C)C	40	24
O=C(CSc1nc2c(cnn2CCO)c(=O)[nH]1)Nc1nc2ccccc2s1	4	3
CC(c1ccccc1)N(Cc1cc(NC(=O)c2cccc(F)c2)ccc1N(C)C)C(=O)c1cccs1 (centres undefined)	3	14
CCn1c(C)cc(O)c(C(c2ccccc2F)N2CCN(C)CC2)c1=O (centres undefined)	9	4
CC(C)c1noc(C(C)n2nnc(-c3ccc(Cl)cc3)n2)n1 (centres undefined)	7	5
COCc1cc(C)nc(N/N=C\c2ccc(OCc3ccccc3Cl)cc2)c1C#N	-5	4
Cc1ccc(NC(=O)CSc2nc(=O)n3cc(Cl)ccc3n2)c(C)c1	7	6
CCOc1cc(Nc2ccc(NC(C)=O)cc2)nc(C)n1	9	-1
Cc1cc(C)n(-c2cc(NCCNC(=O)c3ccc4c(c3)OCO4)nc(C)n2)n1	-11	-12
O=[N+]([O-])c1ccc2c(c1)CCCN2	3	6
Cc1ccccc1NCN1C(=O)c2ccc(Br)cc2C1=O	0&4	-4&0
CCOCCCN(CC(=O)N(Cc1cccn1Cc1ccccc1)C1CCCCC1)S(=O)(=O)c1ccc(C(C)(C)C)cc1	1	3
CC(C)NC(=O)N(Cc1ccc(OS(=O)(=O)c2ccc(F)cc2)cc1)C(C)C	9	5
COCCNc1nccc2[nH]c(-c3cccc(O)c3)nc12	-4	-12
Cn1c(O)c(N=Nc2ccc([N+](=O)[O-])cc2)c2cc(Br)ccc21	0	-4
N#Cc1c(N)nc(SCC(=O)c2cc3ccccc3oc2=O)c(C#N)c1-c1cccs1	-4	-11
CCN=c1scc(C)n1N=Cc1ccc(C#N)cc1	14	14
CC(NC(=O)CSc1ncn[nH]1)c1ccccc1Br (centres undefined)	7	1
CC(NC(=O)c1sc(-c2ccccc2)nc1-c1ccccc1)C1CCCO1 (centres undefined)	8	4
CCn1c(SC2CCCCNC2=O)nc2cc(S(=O)(=O)N3CCOCC3)ccc21 (centres undefined)	5	2
O=C(Cc1ccc(Cl)cc1)Nc1ccc(SCC(=O)N2CCCC2)nn1	-4	-4
COc1cccc(NC(=O)CCC2CCN(C(=O)CCN3CCCO3)CC2)c1	11&2	6&-2
Cc1ccc(SC2(CN)CCCC2)cc1	5	0
NC1=NC(c2cccc(O)c2)n2c(nc3ccccc32)N1 (centres undefined)	-4	-6
CCOc1ccc(C2=C(C(C)=O)Sc3nnc(C)n3N2C(C)=O)cc1	3	0
N=C(N)SCCCCC(=O)O	3	1
Cc1nc2sccn2c1C(=O)N1CCc2onc(-c3cccc(F)c3)c2C1	-3	-10
COc1cccc(NC(=O)c2ccc3nc(C)c(N(C)C(=O)CCc4ccccc4)n3c2)c1	17	14
CCCN1CCC(Cc2noc([C@@]34CC[C@@](C)(OC3=O)C4(C)C)n2)CC1	3	-4
CCOc1nn(CC)cc1C(=O)Nc1nccs1	0	10
CN1CCN(C(=O)CCCn2nnnc2CN2CCOCC2)CC1c1ccccc1 (centres undefined)	7&-5	4&-6
COc1ccc(CCN(C)c2cc(C(=O)NCc3ccco3)c3ccccc3n2)cc1OC	20	11

Bioassay records from PubChem BioAssay.
